LT uptake inh: qHTS Assay for Anthrax Lethal Toxin Internalization. Cells, anthrax lethal toxin internalization, FRET ratio (460/530). Potency, µM (doses to about 40 µM), for inactives: top-dose activity change, negative = inhibition, actives largely listed as inhibitors. hit rate 0.67% among 70,000; active = well fitted falling ratio curve with the 530 nm signal flat; inconclusive = other ratio curves, or a change in one channel alone; inactive = flat curves in the ratio and both channels; the % refers to the ratio; further: on the % scale 0 is the no-effect control and ±100 the full control effect; nearly all actives have a fitted effect of over 50% in size; tested in ME-180 cells; beta-lactamase reporter
Prx2 Sm inh: Schistosoma Mansoni Peroxiredoxins (Prx2) | Schistosoma mansoni peroxiredoxin 2 (Prx2) | S. mansoni Prx2 activity coupled to TGR/GSH (TGR is thioredoxin glutathione reductase), NADPH fluorescence loss, qHTS; some inactives read as strong as hits | Potency, µM | hit rate 0.07% among 65,000 | AID 448, 2006; active means full or partial inhibition curve with a strong effect at the top dose; inconclusive means weaker partial or single-point curve; inactive means no accepted curve; further: series up to 57 µM; many of its hits are not listed in these tables
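Activity is read as the drop in NADPH fluorescence (365/450 nm), recorded every 30 sec for 8 min after H2O2 addition. Prx2 is coupled to TGR-driven NADPH oxidation through glutathione, in phosphate buffer pH 7.4.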
Numbers without * were called inactive; [ ] = dose if it differs, or a comment. Potency means the concentration at half of the fitted maximal effect. The list is partial; the hit share may differ from the screen's.

`O=S(=O)(NC1c2cccc3cccc(c23)C1N1CCNCC1)c1ccccc1` (configuration not stated) gave LT uptake inh inconclusive.
O=C(Cn1nnc2c(cnn2-c2ccc(F)cc2)c1=O)c1ccccc1F was read as LT uptake inh -8.5% and Prx2 Sm inh >57.
`CCCn1c(SCC(=O)OCc2ccccc2)nc2c1c(=O)n(C)c(=O)n2C` gave LT uptake inh -4.2% and Prx2 Sm inh >57.
For O=C(Cn1cnc2c(nnn2Cc2ccc(F)cc2)c1=O)NCc1ccc2c(c1)OCO2 the results were LT uptake inh -6.8% and Prx2 Sm inh >57.
`O=C1CCCC/C1=C\Nc1ccc(Cl)cn1` gave LT uptake inh 1.2% and Prx2 Sm inh >57.
CC(=O)Nc1ccc(NC(=O)CSC2=NCCS2)cc1 was read as LT uptake inh -19.7% and Prx2 Sm inh >57.
For CCOC(=O)/C=c1\sc2n(c1=O)CCN=2 the results were LT uptake inh 14.9% and Prx2 Sm inh >57.
Screening COc1cccc(C2C=C(c3ccc(OC)cc3OC)Nc3nnnn32)c1 (configuration not stated) returned LT uptake inh inconclusive and Prx2 Sm inh >57.
For O=C(NCCN1CCN(c2cccc(Cl)c2)CC1)c1cccn2c(=O)c3ccccc3nc12 the results were LT uptake inh inconclusive and Prx2 Sm inh >57.
`O=C(CC1Nc2ccccc2NC1=O)c1ccccc1` (configuration not stated) gave LT uptake inh -3.1%.
Screening CC(C)CCNc1ncnc2c1nnn2Cc1ccccc1Cl returned LT uptake inh -3.1% and Prx2 Sm inh >57.
CCCOc1cc(C)c(S(=O)(=O)N2CCN(C)CC2)cc1C was read as LT uptake inh 2.4% and Prx2 Sm inh >57.
For O=C(O)C(Cl)Br (configuration not stated) the results were LT uptake inh -1.0%.
COCCN1C(=O)C(=O)/C(=C(/O)c2cccc(S(=O)(=O)N(C)C)c2)C12C(=O)N(C)c1ccccc12 (configuration not stated) was read as LT uptake inh -4.5% and Prx2 Sm inh >57.
Cc1ncc(CSC(=N)N)n1Cc1ccccc1 was read as LT uptake inh 3.0%[8 µM] and Prx2 Sm inh >57.
`CC1(C)CC(N2CCC(=O)N(C3CC(C)(C)NC(C)(C)C3)C2)CC(C)(C)N1` gave LT uptake inh 1.4% and Prx2 Sm inh >57.
CN(C)C(=O)c1ccc(-c2cc(NCc3ccccc3)ncn2)cc1 was read as LT uptake inh 3.5% and Prx2 Sm inh >57.
Screening O=C1CCN(Cc2nnnn2CC2CCCO2)c2ccccc2N1 (configuration not stated) returned LT uptake inh 2.1% and Prx2 Sm inh >57.
`COc1c(S(=O)(=O)n2nc(C)cc2C)ccc(Cl)c1Cl` gave LT uptake inh inconclusive.
Screening FC(F)(F)c1cc(-c2ccco2)nc(N2CCOCC2)n1 returned LT uptake inh -13.5% and Prx2 Sm inh >57.

Brought forward from above: three compounds, followed by the next part.
Screening O=C1CCN(Cc2nnnn2CC2CCCO2)c2ccccc2N1 (configuration not stated) returned LT uptake inh 2.1% and Prx2 Sm inh >57.
`COc1c(S(=O)(=O)n2nc(C)cc2C)ccc(Cl)c1Cl` gave LT uptake inh inconclusive.
Screening FC(F)(F)c1cc(-c2ccco2)nc(N2CCOCC2)n1 returned LT uptake inh -13.5% and Prx2 Sm inh >57.
Screening Cc1cccc(NC(=O)C2CCCN(S(=O)(=O)c3cccc4cccnc34)C2)c1 (configuration not stated) returned LT uptake inh -20.6% and Prx2 Sm inh >57.
Screening CCc1cccc(CC)c1N(COC)C(=O)Cn1c(CO)nc2ccccc21 returned LT uptake inh -22.6% and Prx2 Sm inh >57.
`CCN(CC)C(=O)N1CCN(S(=O)(=O)c2ccc(C)c(C)c2)CC1` gave LT uptake inh -2.1% and Prx2 Sm inh >57.
CC(=O)c1c(C)[nH]c(C(=O)N2CCN(C(=O)c3ccco3)CC2)c1C was read as LT uptake inh inconclusive and Prx2 Sm inh >57.
Screening CC(=O)c1ccc(OCC(O)CN2C(C)CCCC2C)cc1 (configuration not stated) returned LT uptake inh -10.1% and Prx2 Sm inh >57.
O=C(NCC1CCCO1)C1C2C=CC3(CN(Cc4cccs4)C(=O)C13)O2 (configuration not stated) was read as Prx2 Sm inh >57.
For CCN1CCN(CCCNC(=O)c2cc3sccc3n2CC)CC1 the results were LT uptake inh -3.5% and Prx2 Sm inh >57.
Screening COC(=O)c1c(NC(=O)Cc2cccs2)sc2c1CCCC2 returned LT uptake inh -25.9% and Prx2 Sm inh >57.
For CCCCn1c(CN2C(=O)c3ccccc3C2=O)nc2ccccc2c1=O the results were LT uptake inh 8.6%.
Screening Nn1c(-c2ccco2)n[nH]c1=S returned Prx2 Sm inh >57.
`CC(O)CCC(=O)NCCNC(=O)CCC(C)O` (configuration not stated) gave LT uptake inh 0.2% and Prx2 Sm inh >57.
Cc1c(F)cccc1NC(=O)CCC(=O)O was read as LT uptake inh -12.2% and Prx2 Sm inh >57.
Screening Cc1ccccc1-c1cc(-c2ccccc2O)n[nH]1 returned LT uptake inh inconclusive and Prx2 Sm inh >57.
COc1cccc(N2C(=O)C3CC=C(Cl)CC3C2=O)c1 (configuration not stated) was read as LT uptake inh -7.7% and Prx2 Sm inh >57.
O=C(Cc1c(O)c2ccccc2[nH]c1=O)NCc1ccc(F)cc1 was read as LT uptake inh 2.4% and Prx2 Sm inh >57.
For O=C(c1ccccc1S(=O)(=O)NCc1ccccc1)N1CCCC1 the results were LT uptake inh inconclusive and Prx2 Sm inh >57.
`COc1cccc(C(=O)NCc2n[nH]c(=S)n2-c2cccc(C)c2)c1` gave LT uptake inh -16.6% and Prx2 Sm inh >57.
O=C1CC(c2ccc(Cl)cc2)n2nc(N3C(=O)c4ccccc4C3=O)nc2N1 (configuration not stated) was read as LT uptake inh -8.2% and Prx2 Sm inh >57.
For CNC(=O)Nc1cccc(C(F)(F)F)c1 the results were Prx2 Sm inh >57.
`COc1cc(NC(=O)Cc2cccs2)cc(OC)c1` gave LT uptake inh -13.5% and Prx2 Sm inh >57.
For COc1cccc(C(=O)Nc2ccc(C(=O)O)cc2)c1 the results were LT uptake inh 0.2% and Prx2 Sm inh >57.
Screening COc1cccc(NC(=O)CNC(=O)c2cccs2)c1 returned LT uptake inh -0.3% and Prx2 Sm inh >57.
CCCc1cc(=O)[nH]c(SCC(=O)N(C)CC(=O)Nc2ccccc2CC)n1 was read as LT uptake inh -0.2% and Prx2 Sm inh >57.
Screening O=C(Cn1cnc2ccccc2c1=O)OCC(=O)c1ccc2c(c1)OCCO2 returned LT uptake inh inconclusive and Prx2 Sm inh >57.
CCOc1ccc2[nH]c(O)c(NC(C)=O)c2c1 was read as LT uptake inh -9.7% and Prx2 Sm inh >57.
For CCCCn1c(SCC(=O)Nc2cc(NC(=O)c3ccco3)ccc2C)nc2ccccc2c1=O the results were LT uptake inh 3.8% and Prx2 Sm inh >57.
CCCCNC(=O)c1ccc2c(c1)ncn2C1CCCCC1 was read as LT uptake inh -0.2% and Prx2 Sm inh >57.
CCn1c(SCC(=O)n2c(C)c(C)c3ccccc32)nnc1-c1ccco1 was read as LT uptake inh 2.4% and Prx2 Sm inh >57.
`CCCc1nc(N)c(C#N)c(N)c1C#N` gave LT uptake inh -16.7% and Prx2 Sm inh >57.
Screening N#CC1=C(SCC(=O)NCc2ccccc2)NC(=O)CC1c1ccco1 (configuration not stated) returned LT uptake inh -6.4% and Prx2 Sm inh >57.
Screening CN(C)c1nc(-c2ccc3c(c2)OCO3)nc2ccccc12 returned LT uptake inh -18.9% and Prx2 Sm inh >57.
Screening O=C(O)CN1CCNCC1 returned LT uptake inh -15.2% and Prx2 Sm inh >57.
CCOC(=O)c1ccccc1NC(=O)c1cc2sccc2n1C was read as LT uptake inh inconclusive and Prx2 Sm inh >57.
`O=C1C2CCCN2C(c2ccccc2F)N1c1ccc(F)cc1` (configuration not stated) gave LT uptake inh 0.0% and Prx2 Sm inh >57.
For CC(Cc1ccccc1)C(=O)Nc1ccccc1 (configuration not stated) the results were LT uptake inh -4.5%.
For CCn1c(SCC(=O)N(C(C)C)C(C)C)nnc1-c1cc2ccccc2cc1O the results were LT uptake inh inconclusive and Prx2 Sm inh >57.
For O=C(CCN1C(=O)c2ccccc2C1=O)N1CCN(C(=O)c2ccccc2)CC1 the results were Prx2 Sm inh >57.
COC(=O)c1c(N)n(-c2cc(OC)cc(OC)c2)c2nc3ccccc3nc12 was read as LT uptake inh -17.7% and Prx2 Sm inh >57.
`COC(=O)c1ccc(Oc2nc(N3CCCCC3)nc(N3CCOCC3)n2)cc1` gave Prx2 Sm inh >57.
`CC(C)Oc1ccc(N2CC(C(=O)Nc3ccccc3F)CC2=O)cc1` (configuration not stated) gave LT uptake inh 5.7% and Prx2 Sm inh >57.

The final 5 compounds of the section before are carried over, then new ones follow:
For CCn1c(SCC(=O)N(C(C)C)C(C)C)nnc1-c1cc2ccccc2cc1O the results were LT uptake inh inconclusive and Prx2 Sm inh >57.
For O=C(CCN1C(=O)c2ccccc2C1=O)N1CCN(C(=O)c2ccccc2)CC1 the results were Prx2 Sm inh >57.
COC(=O)c1c(N)n(-c2cc(OC)cc(OC)c2)c2nc3ccccc3nc12 was read as LT uptake inh -17.7% and Prx2 Sm inh >57.
`COC(=O)c1ccc(Oc2nc(N3CCCCC3)nc(N3CCOCC3)n2)cc1` gave Prx2 Sm inh >57.
`CC(C)Oc1ccc(N2CC(C(=O)Nc3ccccc3F)CC2=O)cc1` (configuration not stated) gave LT uptake inh 5.7% and Prx2 Sm inh >57.
For O=C(c1cccnc1)N1CCN(C(=O)c2cccs2)CC1 the results were LT uptake inh 1.1% and Prx2 Sm inh >57.
`CCC[C@@H]1O[C@@H]2C[C@@H]3[C@@H]4CCC5=CC(=O)C=C[C@@]5(C)[C@H]4[C@H](O)C[C@@]3(C)[C@@]2(C(=O)CO)O1` gave LT uptake inh -3.8% and Prx2 Sm inh >57.
`Cc1ccc(-c2nc(CS(=O)CC(=O)NCc3ccc(Cl)cc3)c(C)o2)cc1` (configuration not stated) gave LT uptake inh inconclusive and Prx2 Sm inh >57.
For CSc1ncc(Cl)c(C(=O)C(C#N)c2nc3c(C)cc(C)cc3c(=O)[nH]2)n1 (configuration not stated) the results were LT uptake inh -2.7%.
Screening COc1ccc(-n2c(=S)[nH]c3cc(C(=O)NCc4ccco4)ccc3c2=O)cc1OC returned LT uptake inh 12.3% and Prx2 Sm inh >57.
Screening Cn1c(SCC(=O)c2cc3ccccc3o2)nnc1-c1ccccc1 returned LT uptake inh -9.5% and Prx2 Sm inh >57.
`COc1cccc(OCc2nc3ncc(Br)cc3[nH]2)c1` gave LT uptake inh -2.3% and Prx2 Sm inh >57.
`COc1ccc(NC(=O)c2[nH]c(C)c(C(C)=O)c2C)cc1Cl` gave LT uptake inh 6.4% and Prx2 Sm inh >57.
COCCN(CC(=O)NCc1ccccc1)C(=O)CCC(=O)Nc1ccccn1 was read as LT uptake inh 5.8% and Prx2 Sm inh >57.
CCn1nc(NC(=O)c2cccnc2)c2cc3cccc(C)c3nc21 was read as LT uptake inh -4.5% and Prx2 Sm inh >57.
`Cc1occc1C(=O)n1nnc2ccccc21` gave LT uptake inh -20.6% and Prx2 Sm inh >57.
`COC(=O)c1ccccc1NC(=O)c1nc2nc(C)cc(C)n2n1` gave Prx2 Sm inh >57.
Screening COc1ccc(-c2nnn(CC(=O)N(CCO)C(C(=O)NC3CCCC3)c3ccc(F)cc3)n2)cc1 (configuration not stated) returned LT uptake inh 27.0% and Prx2 Sm inh >57.
CC(Nc1n[nH]c(=S)[nH]c1=O)C(=O)OCc1ccccc1 (configuration not stated) was read as LT uptake inh -6.7%.
`CCOC(=O)N1CCN(S(=O)(=O)c2ccc3c(c2)CCN3C(=O)C2CCC2)CC1` gave LT uptake inh 10.0% and Prx2 Sm inh >57.
CC[C@@]1(O)C(=O)COc2c1cc1n(c2=O)Cc2c-1nc1cccc(C(C)C)c1c2[Si](C)(C)C was read as LT uptake inh 3.4% and Prx2 Sm inh >57.
Screening Cn1c(=O)c2c(nc(NCc3ccccc3)n2CC(=O)NCc2ccccc2)n(C)c1=O returned LT uptake inh 6.7% and Prx2 Sm inh >57.
`O=C(OCC#CCSc1nc2ccccc2s1)c1ccco1` gave LT uptake inh inconclusive and Prx2 Sm inh >57.
`Nc1c(Nc2ccccc2)c2ccccc2oc1=O` gave LT uptake inh -14.3% and Prx2 Sm inh >57.
O=S(=O)(c1ccccc1)N1CCC[C@@]2(CCN(c3ccncc3)C2)C1 was read as LT uptake inh -7.3% and Prx2 Sm inh >57.
Screening Cc1cc(NC(=O)COC(=O)C(Nc2ccc(C(F)(F)F)cc2Cl)C(C)C)no1 (configuration not stated) returned LT uptake inh inconclusive and Prx2 Sm inh >57.
Screening OCCN1CCN(CC(O)COc2ccc3c(c2)OCO3)CC1 (configuration not stated) returned LT uptake inh 1.4% and Prx2 Sm inh >57.
For COC(=O)c1ccc(CSc2ncn[nH]2)o1 the results were LT uptake inh 2.8%.
Screening Fc1cccc(-c2cc3nc4c(c(N5CCC6(CC5)OCCO6)n3n2)CCCC4)c1 returned LT uptake inh 5.7% and Prx2 Sm inh >57.
For Cc1cc(=O)oc2cc(OCC(O)CN3CCN(c4ccccc4)CC3)ccc12 (configuration not stated) the results were Prx2 Sm inh >57.
For CN1C(=S)SC(/[N+]([O-])=C\c2cccs2)C1(C)C (configuration not stated) the results were LT uptake inh -0.8% and Prx2 Sm inh >57.
Screening COc1cccc(C(=O)OCC(=O)Nc2ccccc2N2CCOCC2)c1 returned LT uptake inh -4.1% and Prx2 Sm inh >57.
For O=C(NCc1ccccc1)c1ccc(-c2ccccc2F)o1 the results were LT uptake inh 9.2% and Prx2 Sm inh >57.
